VDR inh = inhibitors of human vitamin D receptor. P11473. AID 504847. VDR-SRC2-3 peptide fluorescence polarization, 2 h. Potency, µM, without a hit: max response, negative = inhibition, actives largely listed as inhibitors. 400,000 tested, 0.93% active; active = well fitted inhibition curve with a large enough effect; inconclusive = small, poorly fitted or top-dose-only effect, or another doubt; inactive = no such curve, though single readings can be large or run the other way; also: series mostly up to about 120 µM
Target sequence (P11473 whole entry, looked up): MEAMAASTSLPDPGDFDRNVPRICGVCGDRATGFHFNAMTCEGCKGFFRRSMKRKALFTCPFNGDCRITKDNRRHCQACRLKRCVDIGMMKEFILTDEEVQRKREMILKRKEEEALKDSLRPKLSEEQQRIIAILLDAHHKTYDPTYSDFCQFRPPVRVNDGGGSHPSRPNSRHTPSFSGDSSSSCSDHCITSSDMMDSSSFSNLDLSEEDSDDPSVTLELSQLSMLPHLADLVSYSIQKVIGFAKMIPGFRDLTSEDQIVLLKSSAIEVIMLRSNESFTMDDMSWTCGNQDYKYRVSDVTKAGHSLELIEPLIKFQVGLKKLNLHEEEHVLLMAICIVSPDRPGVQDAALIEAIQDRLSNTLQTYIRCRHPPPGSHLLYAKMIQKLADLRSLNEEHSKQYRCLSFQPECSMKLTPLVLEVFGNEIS
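The screen uses fluorescence polarization to detect compounds that interfere with recruitment of the SRC2-3 coactivator peptide to VDR; plates are read after 2 h at room temperature.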
An asterisk follows results filed as active. % is scaled to controls: 0 for no effect and ±100 for the full control effect; potency is read from the fitted curve at half-maximal effect. A portion of the library; count on the stated rates, not on these rows.

What do the screens show for `COc1ccccc1CNC(=O)CN(c1ccccc1OC)S(C)(=O)=O`?
VDR inh: -3%

How did COc1ccc(CC(NC(C)=O)C(=O)NC2CCN(c3ncccc3[N+](=O)[O-])CC2)cc1 (stereo unspecified) do in these assays?
VDR inh: -21%

What do the screens show for `O=C(Cc1ccc(F)cc1)NC1CCCCCC1`?
VDR inh: 9%

How did COCc1ccc(-c2c(-c3cccc(OC)c3)sc3ccc(OC)cc23)cc1 do in these assays?
VDR inh: -12%

Results for CCn1c(-c2cc(-c3cc(C)ccc3C)nc3ccccc23)n[nH]c1=S ?
VDR inh: inconclusive

Results for CCc1cc(=O)[nH]c(SCc2nc(-c3ccc(C(F)(F)F)cc3)no2)n1 ?
VDR inh: 9%

How did O=[N+]([O-])c1cccc(-c2cn(-c3ccccc3)c(=S)[nH]2)c1 do in these assays?
VDR inh: 10%

What do the screens show for `Cc1ccc(-c2nnc(-c3ccccc3)o2)cc1Br`?
VDR inh: -3%

What do the screens show for `O=C(Nc1ccc2c(c1)OCO2)c1cc2ncc(Br)cn2n1`?
VDR inh: -7%

How did CCn1nc(C)c(/C=N/NC(=O)Cn2cncn2)c1C do in these assays?
VDR inh: -18%

Results for CCCCN(C(=O)CSc1nnnn1C)C1CCS(=O)(=O)C1 (stereo unspecified) ?
VDR inh: -8%

What do the screens show for `CC(=O)c1ccc(NC(=O)CCc2nnc3ccc(NCc4ccco4)nn23)cc1`?
VDR inh: -5%

How did O=C(NCc1ccco1)C(NS(=O)(=O)c1cccc2nsnc12)c1ccccc1 (stereo unspecified) do in these assays?
VDR inh: 3%

What do the screens show for `COc1ccc(NS(=O)(=O)c2cccc(C(=O)NNC(=O)NCCCl)c2)cc1`?
VDR inh: -5%

What do the screens show for `CCOC(=O)/C(C#N)=C/c1ccc(N2CCN(Cc3ccccc3)CC2)cc1`?
VDR inh: -7%

How did O=c1c2cc3c(cc2nc2sc(Nc4ccc(F)cc4F)nn12)OCO3 do in these assays?
VDR inh: 7%

What do the screens show for `Cc1nn(-c2ncc(C(F)(F)F)cc2Cl)c(=O)n1-c1ccc(F)cc1`?
VDR inh: -1%

Results for COC(=O)C1=C(C)Nc2nc(-c3ccccc3)nn2C1c1ccc(C)o1 (stereo unspecified) ?
VDR inh: 7%

Results for CCC(NC(=O)c1ccccc1NC(=O)c1ccccc1)C(=O)NNC(=O)CSc1nc2ccccc2o1 (stereo unspecified) ?
VDR inh: -11%

What do the screens show for `Cc1nn(Cc2cccc(C(=O)O)c2)c(C)c1[N+](=O)[O-]`?
VDR inh: -7%

Overlap with the part before: 4 compounds, then new ones.
What do the screens show for `Cc1nn(-c2ncc(C(F)(F)F)cc2Cl)c(=O)n1-c1ccc(F)cc1`?
VDR inh: -1%

Results for COC(=O)C1=C(C)Nc2nc(-c3ccccc3)nn2C1c1ccc(C)o1 (stereo unspecified) ?
VDR inh: 7%

Results for CCC(NC(=O)c1ccccc1NC(=O)c1ccccc1)C(=O)NNC(=O)CSc1nc2ccccc2o1 (stereo unspecified) ?
VDR inh: -11%

What do the screens show for `Cc1nn(Cc2cccc(C(=O)O)c2)c(C)c1[N+](=O)[O-]`?
VDR inh: -7%

Results for O=C(N/N=C1\CCCc2oc(C(=O)O)cc21)c1ccccc1 ?
VDR inh: 21%

What do the screens show for `COCCCNC(=O)c1ccc(CS(=O)(=O)c2ccc(OC)cc2)o1`?
VDR inh: -6%

What do the screens show for `O=C(O)CCc1nnc2cnc3ccccc3n12`?
VDR inh: -20%

How did CCOc1ccc(S(=O)(=O)Nc2cccc(C(=O)NCC3(N4CCCCC4)CCCCC3)c2)cc1 do in these assays?
VDR inh: -6%

How did Cc1ccc(C)c2[nH]c(=O)c(CCNC(=O)c3ccc4c(c3)OCO4)cc12 do in these assays?
VDR inh: 3%

How did CC1CN(c2ccc([N+](=O)[O-])c(NCCOc3ccc(Cl)cc3)c2)CC(C)N1 (stereo unspecified) do in these assays?
VDR inh: 3%

Results for Cc1csc(NC(=O)CNS(=O)(=O)c2cccs2)n1 ?
VDR inh: 16%

What do the screens show for `COc1ccc(C(=O)NCc2nnc(SCC(=O)N3CCc4ccccc43)n2C2CCCCC2)cc1`?
VDR inh: 1%

What do the screens show for `Cc1cc(C)cc(OCc2ccc(C(=O)NN)o2)c1`?
VDR inh: -4%

How did CC(Cc1cccs1)NC(=S)Nc1ccc(F)cc1 (stereo unspecified) do in these assays?
VDR inh: -16%

How did Cc1ccc2nc(N3C(=O)CNC3=S)sc2c1 do in these assays?
VDR inh: 5%

Results for N#C/C(=C/Nc1ccccc1F)S(=O)(=O)c1ccc(Cl)cc1 ?
VDR inh: 5%

How did O=C(CNc1ccc2ccccc2c1)NNC1=NCCC1 do in these assays?
VDR inh: 7%

How did O=C(CN1C(=O)C2CCCCC2C1=O)OCC(=O)c1ccc(F)cc1 (stereo unspecified) do in these assays?
VDR inh: -1%

What do the screens show for `CCC(=O)N1CCc2cc(Br)cc(S(=O)(=O)CCC(=O)NCc3ccco3)c21`?
VDR inh: 9%

What do the screens show for `CC(=O)c1ccc(N(C(=O)Cn2nnc3ccccc32)C(C(=O)NCc2ccccc2)c2ccccn2)cc1` (stereo unspecified)?
VDR inh: -1%

How did Cc1cccc(C)c1OCC(=O)Nc1c(C(=O)c2ccccc2)oc2ccccc12 do in these assays?
VDR inh: inconclusive

What do the screens show for `Cc1ccc(C(=O)N(CN2CCCC2=O)c2ccc(F)cc2)cc1C`?
VDR inh: 2%

Results for CC(C)(C)c1cc(NC(=O)CCl)n(-c2ccccc2)n1 ?
VDR inh: 13%

Results for CCOC(=O)Cn1c(=N)n(Cc2ccc(C(C)(C)C)cc2)c2ccccc21 ?
VDR inh: -15%

Entries listed so far with two or more sulfur atoms, in the order listed:
Results for CCCCN(C(=O)CSc1nnnn1C)C1CCS(=O)(=O)C1 (stereo unspecified) ?
VDR inh: -8%

How did O=C(NCc1ccco1)C(NS(=O)(=O)c1cccc2nsnc12)c1ccccc1 (stereo unspecified) do in these assays?
VDR inh: 3%

Results for Cc1csc(NC(=O)CNS(=O)(=O)c2cccs2)n1 ?
VDR inh: 16%

How did CC(Cc1cccs1)NC(=S)Nc1ccc(F)cc1 (stereo unspecified) do in these assays?
VDR inh: -16%

How did Cc1ccc2nc(N3C(=O)CNC3=S)sc2c1 do in these assays?
VDR inh: 5%

Remaining list, next part.
Results for CCOc1cc(C(=O)OCc2cc(=O)n3nc(CC)sc3n2)cc(OCC)c1OCC ?
VDR inh: 17%

Results for C(=N\Nc1nc(N2CCCCCC2)nc(N2CCCCCC2)n1)/c1ccccc1 ?
VDR inh: -2%

What do the screens show for `COc1ccc(OCCC(=O)NCCN2CCOCC2)cc1`?
VDR inh: 5%

How did O=C(NCc1cccnc1)c1cc(-c2ccco2)on1 do in these assays?
VDR inh: -9%

Results for Cc1cc(C)c(Cn2c3ccccc3c3cnn(CC(=O)NCCC4=CCCCC4)c(=O)c32)c(C)c1 ?
VDR inh: 9%

How did COc1ccccc1-c1noc(CCC(=O)Nc2cccc(C(F)(F)F)c2)n1 do in these assays?
VDR inh: 4%

What do the screens show for `Cn1c(C(=O)NCCc2ccccc2)cc2c(=O)n3ccccc3nc21`?
VDR inh: 9%

Results for CC1=C(C(=O)Nc2cc(C(=O)NCCC(C)C)ccc2C)SCCO1 ?
VDR inh: -1%

What do the screens show for `CCN(CC(=O)Nc1c(F)cccc1F)C(=O)C1CCN(C(=O)c2ccc(Cl)cc2)CC1`?
VDR inh: -17%

Results for Cc1ccc(C2=NOC(C)(c3nnc(-c4cccc(Cl)c4)o3)C2)cc1 (stereo unspecified) ?
VDR inh: -7%

How did CCOc1cc(/C=N\NC(=O)c2ccc(C)nc2)ccc1OC(=O)c1ccc(F)cc1 do in these assays?
VDR inh: -3%

How did CCC(=O)NNC(=O)CCC(=O)Nc1cccc(Cl)c1C do in these assays?
VDR inh: 7%

How did COc1cc(NC(=O)N2CCC3(CC2)Nc2cc(F)ccc2-n2cccc23)cc(OC)c1OC do in these assays?
VDR inh: 16%

How did CCc1ccccc1N1C(=O)CC(Sc2nccc(C)n2)C1=O (stereo unspecified) do in these assays?
VDR inh: 3%

What do the screens show for `COc1ccc(NC(=O)CN(C)C(=O)c2sc3cc(Cl)ccc3c2Cl)cc1`?
VDR inh: -10%

What do the screens show for `C=CCn1c(=N)c(C(=O)NCCCOC)cc2c(=O)n3ccccc3nc21`?
VDR inh: -10%

What do the screens show for `Brc1cccc(OCCN2CCCCC2)c1`?
VDR inh: -11%

What do the screens show for `Cn1cc(C(=O)NC2CCCCCCC2)c(=O)c2cc(S(=O)(=O)N3CCCC3)ccc21`?
VDR inh: -6%

Results for CCCNC(=O)c1ccc(-c2nn(C)c(=O)c3ccccc23)cc1 ?
VDR inh: 3%

What do the screens show for `COc1ccc(-c2c(O)c3c(OC)c4c(cc3oc2=O)OC(C)(C)C=C4)cc1`?
VDR inh: -18%

How did COc1ccc(C(=O)Cn2ccsc2=NC(C)=O)cc1 do in these assays?
VDR inh: -3%

Results for CC[C@]1(C(=O)OC)[C@H]2C(=O)N(Cc3ccccc3)C(=O)[C@H]2[C@H]2CN=C(SCc3ccc(C(=O)OC)cc3)N21 ?
VDR inh: -4%

What do the screens show for `CSc1ncc(C(=O)Nc2ccc(C)c(Cl)c2)c(-c2ccccc2)n1`?
VDR inh: 0%

Results for CCOC(=O)c1ccc(N=Nc2c(C)[nH]n(-c3ccccc3)c2=O)cc1 ?
VDR inh: -7%

How did CCOC(=O)/C=C1\SCC(=O)N1CCOc1cccc(Br)c1 do in these assays?
VDR inh: 4%

How did COc1ccc(N2C(=O)C(Cl)=C(N3CCN(Cc4ccccc4)CC3)C2=O)cc1 do in these assays?
VDR inh: -1%

How did CCCCOC(=O)Nc1ccc(N(C)C)cc1 do in these assays?
VDR inh: -1%

How did O=C(Nc1cccc(C(=O)N2CCOCC2)c1)c1ccccc1Br do in these assays?
VDR inh: 2%

How did CCOc1ccc(/C=C2\CCC(C3CCCC3)C2=O)cc1 (stereo unspecified) do in these assays?
VDR inh: 2%

How did CCOC(=O)N1CCN(c2nc(-c3cccs3)cc(C(F)(F)F)n2)CC1 do in these assays?
VDR inh: -17%

What do the screens show for `Nc1ncnc2c1ncn2[C@@H]1O[C@H](COP(=O)(O)OP(=O)(O)OC[C@H]2OC(O)[C@H](O)[C@@H]2O)[C@@H](O)[C@H]1O` (stereo partly specified)?
VDR inh: 5%

What do the screens show for `Cc1cccc(N2CCN(C(=O)CCCCn3c(=O)[nH]c4ccsc4c3=O)CC2)c1C`?
VDR inh: -16%

How did CCOc1ccc(C(=O)NCC(c2cccs2)S(=O)(=O)c2ccccc2)cc1 (stereo unspecified) do in these assays?
VDR inh: 0%

Results for CC1(C(=O)Nc2nccs2)Cc2ccccc2C(=O)O1 (stereo unspecified) ?
VDR inh: -13%

Results for CN(C)c1ccc(NC(=O)COC(=O)Cn2nnc3ccccc32)cc1 ?
VDR inh: inconclusive

How did COc1cccc(C(O)c2cnc(C(C)C)n2C)c1 (stereo unspecified) do in these assays?
VDR inh: 14%

What do the screens show for `CSCC[C@H](NC(=O)[C@H](CO)NC(=O)[C@H](Cc1ccc(O)cc1)NC(=O)[C@@H](N)CO)C(=O)N[C@@H](CCC(=O)O)C(=O)N[C@@H](Cc1cnc[nH]1)C(=O)N[C@@H](Cc1ccccc1)C(=O)N[C@@H](CCCNC(=N)N)C(=O)N[C@@H](Cc1c[nH]c2ccccc12)C(=O)NCC(=O)N[C@@H](CCCCN)C(=O)N1CCC[C@H]1C(=O)N[C@H](C(=O)NCC(=O)N[C@@H](CCCCN)C(=O)N[C@@H](CCCCN)C(=O)N[C@@H](CCCNC(=N)N)C(=O)N[C@@H](CCCNC(=N)N)C(=O)N1CCC[C@H]1C(=O)N[C@H](C(=O)N[C@@H](CCCCN)C(=O)N[C@H](C(=O)N[C@@H](Cc1ccc(O)cc1)C(=O)N1CCC[C@H]1C(=O)N[C@@H](CC(N)=O)C(=O)NCC(=O)N[C@@H](C)C(=O)N[C@@H](CCC(=O)O)C(=O)N[C@@H](CC(=O)O)C(=O)N[C@@H](CCC(=O)O)C(=O)N[C@@H](CO)C(=O)N[C@@H](C)C(=O)N[C@@H](CCC(=O)O)C(=O)N[C@@H](C)C(=O)N[C@@H](Cc1ccccc1)C(=O)N1CCC[C@H]1C(=O)N[C@@H](CC(C)C)C(=O)N[C@@H](CCC(=O)O)C(=O)N[C@@H](Cc1ccccc1)C(=O)O)C(C)C)C(C)C)C(C)C`?
VDR inh: -3%

Results for CCO[C@@H]1OC(C(=O)N2CCN(Cc3ccc4c(c3)OCO4)CC2)=C[C@H](c2csc3ccccc23)[C@H]1CCCO ?
VDR inh: -16%

Results for Cc1cccc(-c2cc(C(=O)Nc3c(C)n(C)n(-c4ccccc4)c3=O)c3ccccc3n2)c1 ?
VDR inh: -9%

What do the screens show for `O=C(CSc1n[nH]c(-c2ccccc2Cl)n1)NCc1cccc(C(=O)O)c1`?
VDR inh: -19%

Results for Cc1ccc(-c2nc(CS(=O)(=O)CC(=O)N3CCN(c4ccccc4)CC3)c(C)o2)cc1 ?
VDR inh: 6%

How did CC(=O)Nc1ccc(S(=O)(=O)N2CCC(C(=O)NC3CCCC3)CC2)cc1 do in these assays?
VDR inh: 2%

How did CNC(=O)c1ccc(NC(=O)CN2c3cccc4cccc(c34)S2(=O)=O)cc1 do in these assays?
VDR inh: -8%

How did Cc1cc2oc(=O)cc(CN3CCOCC3)c2cc1O do in these assays?
VDR inh: 0%

Results for COc1ccc(Cl)cc1NC(=O)CN(C)C(=O)c1cccc(S(=O)(=O)N2CCN(C)CC2)c1 ?
VDR inh: -4%

What do the screens show for `CCCCSCCCNC(=O)c1ccc(CS(=O)(=O)c2ccc(OC)cc2)o1`?
VDR inh: -6%

What do the screens show for `CCN(c1ccccc1)c1nc2nonc2nc1NCCO`?
VDR inh: -9%

What do the screens show for `C/C(=N\NC(=O)c1nnn(-c2nonc2N)c1CN(C)c1ccccc1)c1cccs1`?
VDR inh: 5%

Results for CCn1cc(-c2n[nH]c(=S)n2-c2ccc(C)cc2Br)c(=O)c2ccc(C)nc21 ?
VDR inh: -10%

Source: PubChem BioAssay
